BJeLR lethal = kills HRASV12-expressing BJeLR cells; BJeLR (HRASV12) viability, CellTiter-Glo ATP luminescence, 48 h; reference of the scale not given here; inhibition, % (test concentration not listed); 0.17% of 300,000 active; AID 1554;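 active = replicate mean above 50%; inconclusive = above 50% but judged a plate artefact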;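 note: 50 nL library stock added to about 25 µL; numbers are from one replicate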
Sa RN4220 lethal = kills Staphylococcus aureus RN4220. 0.33% of 330,000 active. inhibition, % (concentration not given with the values). AID 1259311. S. aureus RN4220 growth, OD600, 16 h;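 active = z-score of -3 or lower and OD600 up to 0.18 on both plates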;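 note: plate controls were untreated cells for no effect and reference antibiotic for full effect; stock transfer was 100 nL into about 80 µL; one replicate is shown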
PrP 5UTR inh = suppresses PrP 5' UTR mRNA reporter expression. cell-based PrP 5' UTR mRNA reporter, plate reader. inhibition, % (concentration not given with the values). 0.35% of 340,000 active;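 active = every replicate at 50% or more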;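 note: 0 = median of the neutral control wells; tested in H4 reporter cells; numbers are from one replicate; inactives centre near -14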
Sa ugtP lethal = growth inhibition of S. aureus ugtP deletion strain; S. aureus RN4220 ugtP deletion, OD600 growth, 16 h; some inactives read as strong as hits; growth inhibition, % (test concentration not listed); 0.54% of 330,000 active;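 active = z-score under -3 and OD600 up to 0.15 on both plates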;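 note: plate controls were untreated wells for no effect and antibiotic for full effect; wells of about 80 µL received 100 nL stock; the first replicate is given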
Mtb hypoxia rep = inhibitors of hypoxia-regulated fluorescent reporter in Mycobacterium tuberculosis. M. tuberculosis hypoxia-regulated fluorescent reporter, fluorescence. fluorescence inhibition, % (concentration not given with the values). 0.1% of 300,000 active;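 active = 35 to 45% if threefold the growth effect, above 45% if 1.5-fold the growth effect; inactive = the rest, general growth blockers included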;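 note: wells of about 50 µL received 100 nL stock; 0% = vehicle wells and 100% = reference inhibitor wells; whole bacteria with a GFP reporter of the hypoxia response; strong numbers were not always called active; many hits fall short of the cut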
Bead autofluor = flagged as autofluorescent in microsphere protease counterscreen; 3.1% of 360,000 active; AID 624483; compound autofluorescence counterscreen, microsphere flow cytometry; stronger effect = higher value; fluorescence intensity (concentration not given with the values);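 active = at least 3 SD above the mean of all compounds, about 16000 in these data; inconclusive = too few beads counted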;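 note: 100 nL of 1 mM stock went into each well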
Mtb hypoxia rep growth = second read-out of Mtb hypoxia rep, no call of its own (marks repeat the call); growth inhibition, %; measured here: M. tuberculosis growth (absorbance);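 0% = vehicle and 100% = reference antibiotic; read after six days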
The depositor's hits bear a star; ? = inconclusive; . = no result given. No enrichment for hits (roughly 3.9% active in at least one column).

SMILES | BJeLR lethal | Sa RN4220 lethal | PrP 5UTR inh | Sa ugtP lethal | Mtb hypoxia rep | Mtb hypoxia rep growth | Bead autofluor
CCc1cc(C(=O)N2CCCC(C(=O)c3ccc(Cl)cc3)C2)no1 (configuration not stated) | -5 | 5.7 | 12 | 4 | 19 | 1 | 5876
COc1ccccc1NC(=O)Cn1cc(C(=O)C(=O)N2CCOCC2)c2ccccc21 | 5 | 0.8 | 6 | -2 | 2 | 12 | 6410
O=C(COC(=O)c1cccc(Br)c1)NCCC1=CCCCC1 | -4 | -4.5 | -11 | 8 | 3 | -5 | 4612
OC[C@@H]1[C@@H](c2ccccc2)C(c2cccc(Cl)c2)=NN1c1ccccc1 | . | -7.7 | -5 | 17 | 4 | 5 | 3907
Cc1ccccc1-n1ncc(C(C)NC(=O)c2ccccc2)c1C (configuration not stated) | 2 | -2.1 | -8 | -6 | -4 | -1 | 2200
Cc1ccc(C)c(NC(=O)C2CCN(C(=O)c3cccs3)CC2)c1 | -2 | 1.2 | -31 | 12 | 17 | 14 | 3504
O=C(CN1CCN(Cc2ccc(F)cc2Cl)C1=O)NCc1cccs1 | -13 | 0.6 | -6 | 2 | 4 | -3 | 4891
Cc1ccc(NC(=O)CN(C)C(=O)CSc2nnc(C)s2)cc1 | . | 5.1 | -22 | 3 | 11 | 7 | 3556
COC(=O)COc1ccc(-n2cnnn2)cc1 | 7 | 4.3 | -11 | -2 | 5 | 4 | 2461
Cc1ccc(N=C2NC(=O)S/C2=C\c2ccco2)cc1 | 5 | 1.7 | -18 | 7 | 8 | 4 | 2728
Cc1[nH]c2ccc(F)cc2c1CCN(Cc1ccncc1)C(=S)Nc1ccccc1 | 9 | 4.5 | -22 | -6 | -5 | 1 | 6564
O=C(COC(=O)CCc1c[nH]c(=O)[nH]1)Nc1cccc(Cl)c1 | 6 | -5.9 | -39 | -10 | -6 | -2 | 10268
Cc1nc(Cc2nnc(SC(C)C(=O)N3c4ccccc4NC(=O)C3(C)C)o2)cs1 (configuration not stated) | . | -0.5 | -14 | 3 | 12 | 14 | 7978
CCc1nc(N2CCN(S(=O)(=O)c3ccc(Br)cc3)CC2)c2c(C)c(C)sc2n1 | -10 | 16 | -7 | 2 | -3 | -3 | 11307
Cc1cc(NC(=O)c2ccccc2C)n(-c2cccc(F)c2)n1 | -1 | 4.2 | -14 | 12 | 10 | 1 | 3035
Cc1csc2nc(COC(=O)c3cccc(N(C)C)c3)cc(=O)n12 | . | 4.8 | -57 | -7 | -5 | 1 | 3739
CCC(C)(C(=O)NC1CCCC1)N(Cc1ccco1)C(=O)c1ccccn1 (configuration not stated) | 10 | 3.1 | -17 | 2 | 6 | 9 | 6142
S=C(NCc1ccco1)N/N=C/c1cccnc1 | 1 | . | -29 | . | . | . | 5336
Cc1onc(-c2ccccc2Cl)c1C(=O)Nc1cccc2cccnc12 | -3 | -20 | -7 | -7 | 11 | 1 | 2858
O=c1cc(-c2ccc(O)cc2)oc2c(C3OC(CO)C(O)C(O)C3O)c(O)cc(O)c12 (configuration not stated) | . | 4.6 | . | -3 | 2 | -2 | .
COc1ccc(S(=O)(=O)N2CCC[C@H]2C(=O)NCc2ccc(Cl)cc2)cc1 | -11 | 0.1 | -9 | 1 | 6 | 0 | 4306
CC1(C)SC2C(NC(=O)C3(N)CCCCC3)C(=O)N2C1C(=O)O (configuration not stated) | . | 100* | -4 | 101* | 21 | 13 | 2897
O=C(NN=Cc1ccc(OC(=O)c2ccc(Br)cc2)cc1)c1ccncc1 | . | 0.5 | . | -1 | 17 | 1 | .
COc1ccc(S(=O)(=O)N2CCCC2)cc1NC(=O)c1ccccc1F | 4 | 1.6 | -9 | 0 | 7 | 5 | 3502
CCOc1cc(C(N)=O)cc(Cl)c1OCC | 1 | 4.8 | 8 | 14 | 5 | 0 | 4911
CCc1ccccc1Nc1nc(N)nc(COC(=O)CCNS(=O)(=O)c2ccccc2)n1 | 7 | 4.5 | -26 | 0 | -1 | 6 | 6657
NC(=NCCc1ccccc1)NC(=O)c1cc(Cl)ccc1O | 1 | -12 | -57 | -10 | 15 | 10 | 4375
COC(=O)C(NC(=O)CCc1nnc2ccc(N3CCC(C)CC3)nn12)C(C)C (configuration not stated) | -10 | 2.6 | -19 | 0 | 16 | 8 | 3756
CC(C)CCC(O)(c1ccccc1)C(CN1CCOCC1)c1ccccc1 (configuration not stated) | -1 | 7.8 | -18 | 23 | 7 | 8 | 4089
CS(=O)(=O)c1ccccc1-c1nc(-c2cccc(Cl)c2)no1 | 1 | 8.0 | -19 | -2 | 6 | -9 | 3221
COc1ccc(NC(=O)Cc2nnc(SCC(=O)NC3CCCCC3C)n2C)cc1 (configuration not stated) | 0 | 4.4 | -27 | 5 | 0 | 3 | 4160
O=C(CN1C(=O)COc2ccc(S(=O)(=O)N3CCOCC3)cc21)NCc1ccco1 | 2 | 5.2 | -6 | 11 | -1 | 4 | 5251
COc1ccc(CN2CCOCC2)cc1 | 0 | -16 | -7 | -5 | 17 | 4 | 2373
CN(C(=O)COC(=O)c1cccs1)c1c(N)n(Cc2ccccc2)c(=O)[nH]c1=O | 13 | 1.1 | 8 | 0 | 7 | 6 | 6070
CC(=O)Nc1nc(-c2ccccc2)ns1 | -3 | 0.2 | -23 | -6 | -6 | -4 | .
COc1ccccc1N1CCN(S(=O)(=O)CCNC(=O)c2cccc(F)c2)CC1 | -2 | -0.7 | -29 | 5 | 3 | 4 | ?
Cc1nc2ccccc2n1C(=NS(=O)(=O)c1ccccc1)c1ccccc1 | . | 7.0 | . | -6 | 5 | 2 | .
CC(CN1CCC(n2nccc2NC(=O)c2ccccc2Cl)CC1)c1ccccc1 (configuration not stated) | 5 | -1.0 | -44 | -4 | 3 | -6 | 6601
Cc1ccc(C)c(C2NC(=O)c3ccccc3N2)c1 (configuration not stated) | 41 | . | -13 | . | . | . | 2852
CC1Cc2nc(SCC(=O)Nc3ccc4c(c3)OCO4)n(CCc3ccccc3)c(=O)c2S1 (configuration not stated) | -5 | -15 | 3 | -7 | 4 | 14 | 5842
COc1ccccc1CNc1nc(=S)[nH]c2cc(OC)c(OC)cc12 | -4 | 2.2 | -8 | -2 | -1 | 0 | 4347
O=C(c1ccccc1Oc1nnnn1-c1ccccc1)N1CCOCC1 | -1 | 5.1 | -14 | 7 | 4 | 4 | 4300
CC(C)(CNc1ccc(S(=O)(=O)C(F)(F)F)cc1[N+](=O)[O-])N1CCOCC1 | -7 | 3.3 | -5 | 0 | -9 | -10 | 5560
O=C(N/N=C/c1ccccc1F)NC12CC3CC(CC(C3)C1)C2 | -1 | . | -52 | . | . | . | 4315
O=C1c2ccccc2C(=O)N1CCOc1ccccc1Cl | 1 | 9.3 | -42 | 11 | 8 | -9 | 4232
COc1cc2c(cc1NC(=O)CSc1nccn1C)oc1ccccc12 | 1 | 2.6 | -26 | -7 | 2 | 2 | 2155
CC(C)CCC1(CCO)C(=O)N=C(N)NC1=O (configuration not stated) | . | 3.9 | -15 | 2 | 13 | 10 | 3549
O=C(COC(=O)C1CCN(S(=O)(=O)c2cccs2)CC1)c1cc2ccccc2o1 | -9 | 5.5 | -8 | 8 | . | . | 3568
CNC(=O)COc1ccc(S(=O)(=O)Nc2ccc(C)cc2)cc1 | -3 | 3.5 | -16 | 0 | 14 | 4 | 4120
Cc1ccccc1C(=O)NNC(=O)Nc1ccccc1 | 1 | 7.7 | . | -5 | 2 | 9 | .
Cc1cc(-c2nn(-c3ccccc3F)cc2CN2CCN(c3ccncc3)CC2)c(C)s1 | -2 | -0.3 | 5 | -4 | 4 | 26 | 2113
Cn1cnnc1SCC(=O)NNC(=O)c1ccc([N+](=O)[O-])cc1 | . | 3.4 | -4 | 8 | 3 | 10 | 4199
CCN(C(=O)COC(=O)/C=C/c1ccco1)C1CCCCC1 | . | -0.7 | 9 | -2 | -13 | 4 | 8150
CC[C@]12c3[nH]c4ccccc4c3CCN1C(=O)C(CC(=O)NC/C=C(\C)CCC=C(C)C)C[C@@H]2C(=O)N1CCN(C(=O)c2ccco2)CC1 (some centres not stated) | . | -9.0 | -15 | 1 | 4 | 2 | 3642
CCC1C(=O)NCCN1C(=O)c1cccc(OC2CCN(S(=O)(=O)N(C)C)CC2)c1 (configuration not stated) | 15 | 4.2 | -30 | 13 | 6 | 1 | 5749
Cc1cc(C)c2[nH]c(=O)c(CN(CC3CCCO3)C(=S)NCc3ccco3)cc2c1 (configuration not stated) | -6 | 4.1 | -20 | 9 | 15 | 12 | 2515
Cc1ccc(S(=O)(=O)NCCc2ccccc2)cc1 | -4 | 2.5 | -20 | 4 | 7 | 7 | 3357
CC(=O)Nc1nonc1NC(=O)CSc1ccccn1 | 8 | -1.4 | -28 | -4 | 4 | 5 | ?
O=C(O)c1ccc(NC(=O)C(c2ccccc2)c2ccccc2)cc1 | 1 | 3.4 | -20 | 8 | 2 | 19 | 3369
CN(C)CCNC(=O)c1onc(CSc2ccc(F)c(F)c2)c1C(=O)NCCN(C)C | 3 | . | 8 | . | . | . | 3989

Next section; the last 6 above are carried over.
SMILES | BJeLR lethal | Sa RN4220 lethal | PrP 5UTR inh | Sa ugtP lethal | Mtb hypoxia rep | Mtb hypoxia rep growth | Bead autofluor
CCC1C(=O)NCCN1C(=O)c1cccc(OC2CCN(S(=O)(=O)N(C)C)CC2)c1 (configuration not stated) | 15 | 4.2 | -30 | 13 | 6 | 1 | 5749
Cc1cc(C)c2[nH]c(=O)c(CN(CC3CCCO3)C(=S)NCc3ccco3)cc2c1 (configuration not stated) | -6 | 4.1 | -20 | 9 | 15 | 12 | 2515
Cc1ccc(S(=O)(=O)NCCc2ccccc2)cc1 | -4 | 2.5 | -20 | 4 | 7 | 7 | 3357
CC(=O)Nc1nonc1NC(=O)CSc1ccccn1 | 8 | -1.4 | -28 | -4 | 4 | 5 | ?
O=C(O)c1ccc(NC(=O)C(c2ccccc2)c2ccccc2)cc1 | 1 | 3.4 | -20 | 8 | 2 | 19 | 3369
CN(C)CCNC(=O)c1onc(CSc2ccc(F)c(F)c2)c1C(=O)NCCN(C)C | 3 | . | 8 | . | . | . | 3989
O=S(=O)(NCc1ccccn1)c1cc(Cl)ccc1Cl | -5 | 2.5 | -20 | 7 | 4 | 3 | ?
CCN(CC)C(=O)CSc1nnc(-c2cccc(OC)c2)o1 | 11 | 5.3 | -44 | -2 | 1 | 3 | 5525
COC(=O)C1=NN(N=O)C2(CC(=O)N(c3cc(C)cc(C)c3)C2=O)C1 (configuration not stated) | 2 | 3.9 | -20 | -1 | 9 | 2 | 7729
Cc1nc2c(c(=O)n1CCC1=CCCCC1)c1nc3ccccc3nc1n2N=Cc1ccco1 | . | 10 | . | -14 | 2 | 5 | .
COc1ccc(-c2nc3ncccn3c2Nc2ccc3c(c2)OCCO3)cc1 | -2 | 6.5 | -8 | 3 | -8 | 0 | 3052
O=[N+]([O-])c1cc(-c2nnc(-c3ccccc3)o2)ccc1Oc1ccc(Cl)cc1 | 6 | 0.6 | -31 | -4 | 9 | 2 | 10756
Cc1ccc(S(=O)(=O)/N=C2\CN(C)C(=O)N2C)cc1 | 3 | . | -7 | . | . | . | 2327
O=C(Cn1nc(-c2ccccc2)c2ccccc2c1=O)Nc1ccc(F)cc1 | -3 | 19 | -44 | 19 | 7 | -10 | 3920
O=C(NCCOc1ccccc1)C(=O)NCC1CCCO1 (configuration not stated) | -1 | 9.9 | -21 | 6 | -2 | -7 | 3940
OCc1ncccc1O | -14 | 1.5 | -30 | 7 | 9 | 5 | 4282
CCOC(=O)c1cc(CC)sc1NC(=O)CC1SC(N)=NC1=O (configuration not stated) | -2 | -1.6 | -16 | 6 | 9 | 3 | 2537
Cc1ccc(NC(=O)CCC(=O)OCc2ccc(Br)cc2)cc1 | -1 | 0.9 | -8 | 1 | -5 | -6 | 8327
COc1ccc(-c2[nH]ncc2CNCc2cc(C)n(C)n2)c(F)c1 | 1 | 4.7 | -6 | 1 | 11 | 3 | 3138
CC(c1ccccc1)n1cc(C(=O)NCc2cccnc2)nn1 (configuration not stated) | 4 | -0.7 | -8 | -3 | . | . | 4646
COc1ccc(NC(=O)NCc2ccc(Cl)cc2)cc1 | . | 2.0 | -6 | -2 | 14 | 19 | 5471

Compound activity as filed in PubChem BioAssay.
